miR-21 FLuc – raises the signal of a miR-21 reporter; HeLa miR-21 FLuc reporter, luciferase, 48 h; Potency, µM (top dose mostly 38.3 µM), for inactives: at the highest dose reporter change, positive = more light; 340,000 tested, under 10 active; AID 2288; active = well fitted rising curve with a large enough effect; inconclusive = small, poorly fitted or top-dose-only effect; inactive = no such curve, though single readings can be large or run the other way;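 further: % of control where 0% means no effect; miR-21 action dims this reporter so a rising signal means less miR-21 action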
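HeLa cells endogenously expressing miR-21, stably carrying CMV-driven firefly luciferase with a downstream miR-21 binding site, 2000 cells/well. Titrations up to approximately 40 uM, 48 hours; luciferase luminescence read.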
Rango-impB inh – inhibitors of Rango-importin beta complex formation. Q14974. Rango CFP/YFP FRET sensor + importin beta, 45 min. Potency, µM (series often up to 92.2 µM), for inactives: top-dose inhibition of complex formation. 0.031% of 340,000 active. AID 540263; active = rising FRET ratio curve, often small or poorly fitted; inconclusive = mostly compound fluorescence or quenching in the first reads; inactive = flat curves in all reads;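 further: potency means the concentration at half of the fitted maximal effect; 0% = DMSO wells and 100% = buffer wells lacking importin beta; nearly all actives have a fitted effect of over 15% in size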
Target sequence (Q14974 whole entry, looked up): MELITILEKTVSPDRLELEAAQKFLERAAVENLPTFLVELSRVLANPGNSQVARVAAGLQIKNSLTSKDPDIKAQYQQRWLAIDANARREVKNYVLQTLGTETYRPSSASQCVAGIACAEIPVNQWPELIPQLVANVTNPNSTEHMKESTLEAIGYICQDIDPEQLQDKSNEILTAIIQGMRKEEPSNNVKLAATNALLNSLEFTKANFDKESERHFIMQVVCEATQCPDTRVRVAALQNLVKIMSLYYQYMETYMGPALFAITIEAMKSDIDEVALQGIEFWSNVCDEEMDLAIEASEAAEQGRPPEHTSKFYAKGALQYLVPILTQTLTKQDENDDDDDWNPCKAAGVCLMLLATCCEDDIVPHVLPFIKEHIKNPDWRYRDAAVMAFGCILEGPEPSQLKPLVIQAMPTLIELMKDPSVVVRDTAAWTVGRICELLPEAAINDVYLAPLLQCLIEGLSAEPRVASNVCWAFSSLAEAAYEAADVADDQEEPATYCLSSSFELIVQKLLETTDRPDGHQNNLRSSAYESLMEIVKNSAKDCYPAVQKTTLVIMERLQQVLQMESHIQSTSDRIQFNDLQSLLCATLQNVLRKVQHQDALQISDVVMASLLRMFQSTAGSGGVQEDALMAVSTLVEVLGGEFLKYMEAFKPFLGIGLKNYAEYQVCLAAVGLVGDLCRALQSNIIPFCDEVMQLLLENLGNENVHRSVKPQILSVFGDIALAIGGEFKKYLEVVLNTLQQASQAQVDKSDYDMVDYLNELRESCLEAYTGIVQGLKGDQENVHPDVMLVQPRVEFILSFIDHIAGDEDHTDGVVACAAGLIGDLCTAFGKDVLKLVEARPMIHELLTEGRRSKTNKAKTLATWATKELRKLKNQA
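FRET biosensor Rango (snurportin 1 IBB between N-terminal EYFP and C-terminal Cerulean), 50 nM in PBS/1 mM DTT/0.02% Tween-20/0.1% BSA, preincubated 5 min RT with compound; 0.125 microM importin beta added, 45 min RT, CFP/YFP FRET ratio read.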
GLA inh pH 4.5 – inhibitors of human alpha-galactosidase A at pH 4.5. P06280. purified enzyme, 4-MU-alpha-Gal fluorescence, pH 4.5. activity change, negative = inhibition, % at 105 µM. 230,000 tested, under 10 active. AID 1467; inconclusive = small, poorly fitted or top-dose-only inhibition, or a rising curve; inactive = flat fitted curve, though single readings scatter; no compound was filed as active;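 further: 0% = full activity with enzyme and -100% = basal without enzyme; dose as in the result columns while the protocol names 77 µM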
Rango release inh – inhibition of RanGTP-driven Rango-importin beta dissociation | AID 540253 | 0.071% of 340,000 active | Potency, µM (highest dose often 46.1 µM), inactives show top-dose activity change, negative = inhibition | Biochemical FRET Rango-importin beta, RanGTP-induced dissociation; active means falling FRET ratio curve, often poorly fitted, with flat reads before Ran was added; inconclusive means other falling curves, or compound fluorescence or quenching; inactive means flat or rising ratio curve;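 further: potency means the concentration at half of the fitted maximal effect; % of control where 0% means no effect; nearly all actives have a fitted effect of over 45% in size; -100% = wells without RanGTP and RCC1; the record marks most hits as doubtful in a second field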
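Rango FRET biosensor (snurportin-1 IBB flanked by N-terminal EYFP and C-terminal CFP10) at 0.1 uM, with 0.25 uM importin beta in PBS, 1mM DTT, 0.02% Tween-20, 0.1% BSA. 0.6 uM Ran, 2mM GTP and 0.2 uM RCC1 were then added for 45 min at room temperature. Inhibition read as loss of FRET rise.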
Starred values were filed as active, the others as inactive; ? = inconclusive; / = not tested or not shown; & = joins results of further samples. Not all compounds are listed. The share of hits here may be higher or lower than overall.

SMILES | miR-21 FLuc | Rango-impB inh | GLA inh pH 4.5 | Rango release inh
Cc1nc(-c2ccc(Cl)cc2)sc1C1(C)CC(c2cccnc2)=NO1 (stereo not given) | -43.8% | -1.1% | -2.1 | 1.0%
O=C1c2cccc3cc([N+](=O)[O-])cc(c23)C(=O)N1c1ccccc1O | 7.7% | 2.9% | 6.4 | 4.8%
Cc1ccc(S(=O)(=O)c2cc(OC(=O)c3ccco3)ccc2OC(=O)c2ccco2)cc1 | -8.5% | -3.9% | 1.4 | -8.5%
CC1Cc2ccccc2N1C(=S)NC(=O)C1(C)CC1(Cl)Cl (stereo not given) | 4.2% | 4.5% | -4.7 | 21.6%
C/C(=N\NC(=O)c1ccc(F)cc1)c1cccc(NC(=O)c2ccco2)c1 | -18.8% | -3.6% | 7.0 | 11.5%
COc1cccc(/C=N/NC(=O)c2cccc3ccccc23)c1OC | / | -0.7% | / | -4.3%
COc1ccccc1NS(=O)(=O)c1ccc(O)c(C(=O)OCC(=O)Nc2ccccc2F)c1 | -1.3% | -0.4% | -2.5 | 0.6%
CCc1ccc(N(CC(=O)NCCc2ccccc2)C(=O)CCC(=O)Nc2ccccn2)cc1 | -0.9% | 1.4% | / | -8.2%
COc1ccccc1NC(=O)N(O)C1(C#N)CCCCC1 | / | 6.6% | / | ?
CC(C)CCN1CCN(Cc2cnc(-c3ccccc3)s2)CC1CCO (stereo not given) | -0.5% | -1.0% | 0.9 | -4.9%
CCCN(CCC)C(=O)c1cn(CC)c2ccc(S(=O)(=O)N3CCCCC3)cc2c1=O | -4.6%&-5.3% | 0.7% | / | 11.5%
Cc1ccc(C(=O)N[C@H](C(=O)Nc2ccc(F)cc2)C(C)C)cc1 | -8.5% | 3.4% | / | -5.6%
CCOC(=O)COc1ccc(S(=O)(=O)Nc2cccc(SC)c2)cc1 | -3.5% | 0.6% | 7.7 | 2.4%
COc1ccc(-c2nnc(NC(=O)c3cc(Cl)ccc3Cl)o2)cc1 | -3.2% | -0.9% | -12.8 | -2.5%
CC(=O)Nc1ccc(C(=O)COC(=O)CN2C(=O)NC3(CCCCC3C)C2=O)cc1 (stereo not given) | / | 1.5% | / | -4.3%
Cc1ccc(NC(=O)COC(=O)C2CC2(Cl)Cl)cc1C (stereo not given) | 0.5% | 0.5% | 8.2 | 0.6%
C[C@@H](CN1C(=O)C(=O)NC[C@@H]1C)NC(=O)CC12CC3CC(CC(C3)C1)C2 | -6.2% | -0.7% | / | 1.7%
O=C(COc1ccc(S(=O)(=O)NCc2ccccc2)cc1Cl)NCc1ccccn1 | -1.5% | 1.9% | / | -9.9%
COc1cc(NC(=O)c2cc(C)on2)cc(C(=O)Nc2cccc(C(F)(F)F)c2)c1 | 28.7% | -2.8% | -22.8 | 1.2%
Cc1cnc(C(=O)OCC(=O)NCc2ccc(Cl)cc2)cn1 | / | 0.5% | / | -9.6%
Cc1ccc(C(=O)/C=C/c2ccc(-c3ccc(C)cc3)o2)cc1 | -13.2% | ? | 8.0 | ?
COc1ccc(/C=c2/sc3nc(-c4ccccc4)c(-c4ccccc4)n3c2=O)cc1 | 0.6% | -2.2% | 6.2 | 23.5%
CC(C)CC1(C)NC(=O)NC1=O (stereo not given) | 0.7% | 6.4% | 15.8 | -5.2%
Cc1c(/C(O)=C2/C(=O)C(=O)N(CCN(C)C)C2c2ccc(C(C)C)cc2)cnn1-c1ccccc1 (stereo not given) | -9.0% | -0.3% | -3.9 | 23.2%
O=S(=O)(c1cccc(C(F)(F)F)c1)N1CCN(c2ccccc2)CC1 | -1.7% | -0.5% | 1.9 | 4.1%
Nc1nonc1-n1nnc(C(=O)N/N=C/c2ccoc2)c1CSc1ccccc1 | 4.2% | -3.8% | / | 13.5%
COc1ccc(/C=N/N2CCN(c3ccc(Cl)cc3)CC2)cc1O | 0.3% | -1.0% | / | 32.7%
CS(=O)(=O)c1ccc2nc(NC(=O)CN3CCC(Cc4ccccc4)CC3)sc2c1 | -0.3% | -0.4% | / | -0.5%
Cc1occc1C(=O)Nc1ccc(S(=O)(=O)N2CCN(C)CC2)cc1 | -6.4% | 2.9% | 4.3 | 2.7%
O=C(Nc1cccc2cccnc12)c1ccccc1Br | / | 5.2% | / | 16.8%
Cc1ccc(S(=O)(=O)NCC(=O)N(CC(=O)NCc2ccco2)Cc2ccc(F)cc2)cc1 | -1.9% | 0.1% | / | 1.1%
CCOC(=O)/C(=N/Nc1ccc(OC)cc1)N1CCCc2ccccc21 | 0.6% | -0.2% | -10.4 | -4.6%
COCCc1ncc(CN2CCC(C(=O)Nc3cccc(-c4cscn4)c3)CC2)cn1 | 12.4% | 0.6% | / | 4.8%
O=C(CSc1ccccn1)Nc1cccc(NC(=O)CSc2ccccn2)n1 | -9.6% | -6.1% | 2.3 | -5.8%
CC1CCCCN1C(=O)CSc1nc2ccccc2[nH]1 (stereo not given) | -54.3% | 5.7% | -5.7 | 3.3%
CCOC(=O)c1cnn(-c2cc(C)nc3c(-c4ccccc4)cnn23)c1N | -1.2% | -2.4% | -0.2 | -8.4%
O=[N+]([O-])c1cccc(C(=Nc2ccccc2)NO)c1 | -2.5% | -1.6% | 5.3 | 2.5%
O=C(N/N=C\c1ccoc1)c1ccco1 | -33.0% | -0.8% | / | 10.6%
O=C(N/N=C/c1ccc2c(c1)OCO2)c1ccc(NC(=O)c2ccccc2Cl)cc1 | 0.8% | 1.3% | / | -12.1%
O=C(c1ccco1)N1CCCC(N2CCN(c3cccc(C(F)(F)F)c3)CC2)C1 (stereo not given) | 20.9% | 4.9% | / | 6.5%
CCCCCN1CC(=O)N2C(C)c3[nH]c4ccccc4c3C[C@H]2C1=O (stereo not given in full) | -2.9% | 1.9% | / | -3.2%
COc1ccc(C)cc1S(=O)(=O)N(CC(=O)Nc1cccc([N+](=O)[O-])c1)c1ccc(C)c(C)c1 | -3.1% | 2.7% | -1.3 | 5.4%
NS(=O)(=O)c1ccc(N=C2C(=O)Nc3ccccc32)cc1 | 0.3% | -0.4% | -3.9 | -6.6%
CC(=O)Nc1ccc(NC(=O)C(C)Oc2ccc(Cl)cc2Cl)cc1 (stereo not given) | -22.5% | 1.1% | -14.3 | 1.1%
CCN(CC)CCCn1c2c(c(SCC(=O)Nc3ccc(C)c(F)c3)nc1=O)CCC2 | / | -2.1% | / | -15.9%

An excerpt of the results above, as a working copy:
SMILES | miR-21 FLuc | Rango-impB inh | GLA inh pH 4.5 | Rango release inh
CC(=O)Nc1ccc(NC(=O)C(C)Oc2ccc(Cl)cc2Cl)cc1 (stereo not given) | -22.5% | 1.1% | -14.3 | 1.1%
CCN(CC)CCCn1c2c(c(SCC(=O)Nc3ccc(C)c(F)c3)nc1=O)CCC2 | / | -2.1% | / | -15.9%

Other structures
SMILES | miR-21 FLuc | Rango-impB inh | GLA inh pH 4.5 | Rango release inh
CCOC(=O)/C(=N/O)C1=NC(C)(C)Cc2cc(C)c(C)cc21 | 0.1% | -1.5% | 8.4 | 0.3%
Cc1ccc([C@@H]2[C@@H]3C(=O)N(c4ccccc4)C(=O)[C@@H]3[C@]3(C)C(=O)N(CC4CC4)CC(=O)N23)o1 | 0.1% | -0.3% | / | 31.5%
COc1ccccc1C/C(N)=N/OC(=O)/C=C/c1ccccc1 | -17.4% | 0.6% | -2.0 | 0.2%
O=C(CC1Sc2ccccc2NC1=O)Nc1ccccc1[N+](=O)[O-] (stereo not given) | -12.6% | ? | -7.8 | 4.2%
COc1ccc(C2C(C(=O)N3CCN(c4ccc(OC)cc4)CC3)c3ccccc3C(=O)N2C)cc1 (stereo not given) | 15.1% | 0.2% | 3.7 | 7.6%
c1ccc(CCNc2nc(-c3ccccn3)cs2)cc1 | 13.2% | -6.4% | 6.4 | 0.2%
Cc1cc2oc(C(=O)Nc3c(C)n(C)n(-c4ccccc4)c3=O)c(C)c2cc1C | -6.2% | -0.1% | -4.3 | 3.2%
Cc1cc(C)c(C#N)c(SCC(=O)c2cccs2)n1 | -27.2% | ? | -1.2 | ?
Cc1ccc(-c2nnc(SCC(=O)NCCN3C(=O)CSC3=O)n2C)cc1 | / | 8.4% | / | -8.4%
CC(=O)c1c(C)nn(C(C)CC(=O)O)c1C (stereo not given) | 1.6% | 1.7% | -2.2 | 33.9%
C/C(=N\NC(=O)c1ccc2c(c1)OCO2)c1ccc(NC(=O)CCCC(=O)O)cc1 | -14.5% | 1.0% | / | 1.0%
CCCNC(=S)Nc1ccc(Br)cc1 | -11.2% | -1.1% | 11.0 | 4.9%
Cc1ccc(S(=O)(=O)N(C)C)cc1NC(=O)COC(=O)/C=C/c1cnc2ccccc2n1 | -4.2% | 1.0% | -3.6 | 11.6%
Cc1ccccc1NC(=S)Nc1ccccn1 | -22.9% | -0.6% | -2.6 | 15.2%
COc1ccc(-c2c(C)nn3c(-c4ccccc4)cc(C)nc23)cc1 | -3.7% | -0.5% | 12.2 | -5.0%
Nc1cc(Nc2ccccc2)ccn1 | / | -1.0% | / | -3.1%
CCN(CC)S(=O)(=O)c1ccc(Cl)c(C(=O)NC(C)C(c2cccs2)N2CCCC2)c1 (stereo not given) | 4.6% | 0.6% | -15.2 | -2.4%
S=c1cnc2ccccc2[nH]1 | -15.4% | -1.3% | -3.7 | 0.8%
CCCNC(=O)CN(c1ccccc1)S(=O)(=O)c1ccc(OC)c(OC)c1 | -1.6% | -3.1% | 1.7 | 14.6%
COc1cc(NS(=O)(=O)c2cc(C)ccc2OC)c(OC)cc1Cl | 7.9% | -1.5% | 4.1 | -8.0%
CCOc1ccc(N2CC(NS(=O)(=O)c3cccs3)CC2=O)cc1 (stereo not given) | / | -1.5% | / | 3.8%
COC(=O)c1cc(S(=O)(=O)Nc2cc(OC)cc(OC)c2)cn1C | 3.2% | 1.3% | / | 13.8%
CCOc1cccc(OCCCOc2cccc3cccnc23)c1 | -17.7% | -0.5% | -8.3 | 1.6%
CCCCCCC1CC(C)(/C(C)=N/NC(N)=O)OC1=O (stereo not given) | -6.4% | 0.6% | 12.8 | -6.5%
COc1ccc(S(=O)(=O)Nc2ccccc2OC)cc1C | 1.3% | 0.3% | 0.8 | -1.6%
O=C(O)CCCC(=O)NCCCc1ccccc1 | -7.9% | -0.1% | 2.7 | ?
O=C(CNC(=O)c1ccccc1)N/N=C/c1cccs1 | -18.2% | 0.2% | -6.0 | 9.4%
Cc1nc(C(=O)NCC(=O)c2ccc(Cl)cc2)c(C(F)(F)F)o1 | -7.5% | 5.4% | -14.0 | -7.7%

An excerpt from above in order of molar mass, ascending:
SMILES | miR-21 FLuc | Rango-impB inh | GLA inh pH 4.5 | Rango release inh
Nc1cc(Nc2ccccc2)ccn1 | / | -1.0% | / | -3.1%
O=C(O)CCCC(=O)NCCCc1ccccc1 | -7.9% | -0.1% | 2.7 | ?
O=C(CNC(=O)c1ccccc1)N/N=C/c1cccs1 | -18.2% | 0.2% | -6.0 | 9.4%
COc1ccc(S(=O)(=O)Nc2ccccc2OC)cc1C | 1.3% | 0.3% | 0.8 | -1.6%
CCOc1cccc(OCCCOc2cccc3cccnc23)c1 | -17.7% | -0.5% | -8.3 | 1.6%
COc1ccc(-c2c(C)nn3c(-c4ccccc4)cc(C)nc23)cc1 | -3.7% | -0.5% | 12.2 | -5.0%
Cc1nc(C(=O)NCC(=O)c2ccc(Cl)cc2)c(C(F)(F)F)o1 | -7.5% | 5.4% | -14.0 | -7.7%
COC(=O)c1cc(S(=O)(=O)Nc2cc(OC)cc(OC)c2)cn1C | 3.2% | 1.3% | / | 13.8%
CCOc1ccc(N2CC(NS(=O)(=O)c3cccs3)CC2=O)cc1 (stereo not given) | / | -1.5% | / | 3.8%
COc1cc(NS(=O)(=O)c2cc(C)ccc2OC)c(OC)cc1Cl | 7.9% | -1.5% | 4.1 | -8.0%
CCCNC(=O)CN(c1ccccc1)S(=O)(=O)c1ccc(OC)c(OC)c1 | -1.6% | -3.1% | 1.7 | 14.6%
Cc1ccc(S(=O)(=O)N(C)C)cc1NC(=O)COC(=O)/C=C/c1cnc2ccccc2n1 | -4.2% | 1.0% | -3.6 | 11.6%
CCN(CC)S(=O)(=O)c1ccc(Cl)c(C(=O)NC(C)C(c2cccs2)N2CCCC2)c1 (stereo not given) | 4.6% | 0.6% | -15.2 | -2.4%
